Assay outcomes: PubChem BioAssay, National Center for Advancing Translational Sciences (NCATS)
HSD17B inh = blocks hydroxysteroid 17-beta dehydrogenase activity. Q99714. recombinant HSD17B10, NADH fluorescence kinetic; many of its hits are not listed in these tables. Potency, µM (doses to about 57.1 µM), inactives show at the highest dose activity change, negative = inhibition, hits mostly inhibitors. 7.6% of 75,000 active. AID 893; active = well fitted inhibition curve with a large enough effect; inconclusive = small, poorly fitted or top-dose-only effect; inactive = no such curve, though single readings can be large or run the other way;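 also: the protocol describes HADH2 (HSD17B10) and not the HSD17B4 of the title; nearly all actives have a fitted effect of over 70% in size; most hits overshoot -100% by far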
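Activity followed as NADH fluorescence increase (ex 360, em 450 nm) every 30 seconds for 4 min, using final 90 uM beta-hydroxybutyryl CoA and 1 mM NAD+. Recombinant His-tagged enzyme, 20 nM, pH 9.0 Tris buffer, 15 min compound preincubation.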
The depositor's hits bear a star; ? = inconclusive; [ ] = remark or other dose. % is scaled to controls: 0 for no effect and ±100 for the full control effect; potency is read from the fitted curve at half-maximal effect. This is a subset (hit frequency here may not be typical).

SMILES,HSD17B inh
CO[C@@H](NC(N)=O)C(=O)O,0%[11.4 µM]
Cc1ccc(NC(=O)CN(c2cc(C)cc(C)c2)S(=O)(=O)c2c(C)noc2C)nc1,-3%
Cc1ccc(N2CC(C(=O)Nc3cccnc3)CC2=O)cc1 (stereo unspecified),20%
c1ccc(-c2nc3ccccc3nc2N2CCOCC2)cc1,?
CN1C(=O)CC(C(=O)O)SC1=Nc1cccc(C(F)(F)F)c1 (stereo unspecified),-1%
CCCCCn1c(CCNC(=O)CCC)nc2ccccc21,-3%
Cc1cc(NC(=O)c2cc3n(n2)C(C(F)(F)F)CC(c2ccco2)N3)n(-c2ccccc2)n1 (stereo unspecified),-12%
COc1cccc(-c2nc(N(C)Cc3ccco3)c3ccccc3n2)c1,?
COc1ccc(C(=O)N2CCC3(CC2)CCN(c2cccc(-c4ccccc4)c2)CC3)cc1,?
CCn1c(SCC(=O)N2CCCc3ccccc32)nnc1-c1cccs1,0%
CCOC(=O)N1CCN(C(=O)c2ccc3c(=O)n(CCc4ccccc4)c(=O)[nH]c3c2)CC1,13µM*
CCOC(=O)c1cnc(-n2nc(C)cc2C)nc1N1CC(C)OC(C)C1 (stereo unspecified),5%
Cc1cc(NC(=O)CCN2C(=O)C3C4C=CC(C4)C3C2=O)c2ccccc2n1 (stereo unspecified),-5%
Cc1ncc(COP(=O)(O)O)c(C)c1O,-1%[11.4 µM]
Cc1ccc(-c2noc(CN(C(=O)c3cccs3)C(C)C)n2)cc1,-5%
CCn1c(C(O)c2cccc(OC)c2OC)nc2ccccc21 (stereo unspecified),7%
Cc1c(NC(=O)CC(=O)Nc2c(C)n(C)n(-c3ccccc3)c2=O)c(=O)n(-c2ccccc2)n1C,6%
Cc1cccc(N2CCN(c3cc(C)nc4nnnn34)CC2C)c1 (stereo unspecified),-17%
O=C(NCCCn1ccnc1)c1cccc(S(=O)(=O)Nc2ccccc2F)c1,18%
Cc1ccccc1NC(=O)CCn1c(=O)oc2ccccc21,9%
N#CCC(=O)Nc1ccccc1C(=O)O,7%
COc1ccc(C2C(C(=O)N3CCC(C)CC3)c3ccccc3C(=O)N2C)cc1 (stereo unspecified),-10%
COC(=O)c1ccc2c(c1)NC1=C(C(=O)CC(C)(C)C1)C(c1ccncc1)N2 (stereo unspecified),-11%
O=C(Nc1ccc2nc(C3CC3)n(Cc3ccc(F)cc3)c(=O)c2c1)c1ccco1,?
CN(Cc1ccco1)c1nc(-c2ccoc2)nc2ccccc12,?
Cc1cc(-c2ccc(N=Nc3ccc4c(S(=O)(=O)O)cc(S(=O)(=O)O)c(N)c4c3O)c(C)c2)ccc1N=Nc1ccc2c(S(=O)(=O)O)cc(S(=O)(=O)O)c(N)c2c1O,5µM*
COc1cc(OC)cc(-c2nnc(SCc3cccnc3)o2)c1,-7%
Cc1cc(C)nc(NCC(O)COc2ccccc2C)n1 (stereo unspecified),5%
CCC1(CC)C(=O)C(C)(C)C(=O)OC1c1ccccn1 (stereo unspecified),0%
CCOc1ccc(Br)cc1-c1noc(-c2cccs2)n1,-15%
CCOC(=O)c1cc(-c2ccc(C)o2)nn1CCC#N,-4%
O=C(CSc1ncnc2c1nnn2-c1ccc(F)cc1)NCc1ccco1,-3%

At a glance, six of the compounds above.
SMILES,HSD17B inh
O=C(Nc1ccc2nc(C3CC3)n(Cc3ccc(F)cc3)c(=O)c2c1)c1ccco1,?
CN(Cc1ccco1)c1nc(-c2ccoc2)nc2ccccc12,?
Cc1cc(-c2ccc(N=Nc3ccc4c(S(=O)(=O)O)cc(S(=O)(=O)O)c(N)c4c3O)c(C)c2)ccc1N=Nc1ccc2c(S(=O)(=O)O)cc(S(=O)(=O)O)c(N)c2c1O,5µM*
COc1cc(OC)cc(-c2nnc(SCc3cccnc3)o2)c1,-7%
Cc1cc(C)nc(NCC(O)COc2ccccc2C)n1 (stereo unspecified),5%
CCC1(CC)C(=O)C(C)(C)C(=O)OC1c1ccccn1 (stereo unspecified),0%

Later entries
SMILES,HSD17B inh
CN(C)CCCCCNCCCNC(=O)/C=N\O,-1%
CCN(CC)CCCCCCCCOC(=O)c1cc(OC)c(OC)c(OC)c1,-5%
CCOc1cc2c(cc1OCC)C(C(=O)O)C(c1ccc(OC)c(O)c1)N(C)C2=O (stereo unspecified),10%
CCC(C(=O)Nc1nc(C)cs1)c1ccccc1 (stereo unspecified),4%
O=C(CN1CCN(c2ccccn2)CC1)N1c2ccccc2CCc2ccccc21,7%
Cc1cc2cc(CN(CC3CCCO3)C(=O)c3cnccn3)c(=O)[nH]c2cc1C (stereo unspecified),-4%
CCCCOc1ccccc1C1NC(=O)NC(C)=C1C(=O)OCCOCC (stereo unspecified),7%
OC(COc1ccc2c(c1)CCC2)CN1CCN(c2ccccc2F)CC1 (stereo unspecified),-13%
COC(=O)CC#N,0%
N#Cc1ccc(CN2CC[C@@]3(CCCN(S(=O)(=O)c4ccccc4)C3)C2)cc1,6%
COc1ccc(Nc2nc(OC)nc(N3CCN(c4ccc(OC)cc4)CC3)n2)cc1,11%
CC(C)Oc1ccc2c(=O)cc(-c3ccccc3)oc2c1,1%
CC12CC3CC(C)(C1)CC(C(=O)Nc1nn[nH]n1)(C3)C2,-1%
C=C(C)COc1ccc2oc(C)c(C(=O)OCCOC)c2c1,-13%
COC(=O)c1sccc1NC(=O)CSc1nnnn1-c1ccccc1F,3%
O=C(Nc1cccc2cccnc12)c1cccnc1,4%
COc1ccc(Cc2nc(-c3cccs3)no2)cc1OC,-5%
CC[N+](CC)(CC)C/C(N)=N/O,-2%
CC(=O)OCC1OC(n2ccc(=O)[nH]c2=O)C(O)C1O (stereo unspecified),12%
COc1ccc(NC(=O)c2ocnc2C)cc1OC,-3%
CSc1nc(C)cc(OCC(=O)n2nc(C)cc2C)n1,13%
CCCCOc1ccc(Cl)cc1CSc1nnc(C)n1N,-4%
Cc1ccc(-c2nc(CS(=O)CC(=O)NC3CCC(C)CC3)c(C)o2)cc1 (stereo unspecified),-15%
CCc1ccc(NC(=O)CSc2nnc(CNC(=O)c3c(F)cccc3Cl)o2)cc1,-3%
CCOC(=O)[C@]1(C(NC(=O)OC)c2cccc(C)c2)CCCC1=O (stereo partly specified),1%[11.4 µM]
Cc1cc(NC(=O)CSc2nc3ccccc3n2CC(=O)N2CC(C)CC(C)C2)no1 (stereo unspecified),1%
Fc1cccc(Cl)c1Cn1nnc2c(-n3ccnc3)ncnc21,?
Cn1c(=O)cc(SCC(=O)N2CCN(c3ccccn3)CC2)c2ccccc21,-1%
Cn1cc(S(=O)(=O)NCc2ccco2)c(=O)n(C)c1=O,9%
CCOC(=O)C1(CC)NC(c2ccc(N(C)C)cc2)C2C(=O)N(C)C(=O)C21 (stereo unspecified),11%
O=S1(=O)N=C(N2CCCc3ccccc32)c2ccccc21,6%
CCCC(=O)N1CC2(CCC)CN(C(=O)CCC)CC(CCC)(C1)C2=O,6%
CC(=O)N1CCCc2cc(S(=O)(=O)NCCC3=CCCCC3)ccc21,-4%
CC1C(C#N)=C(N)OC2=C1C(=O)CCC2 (stereo unspecified),2%
CCC/C=C(\CCC)C(NC(=O)c1ccccc1)c1ccccc1 (stereo unspecified),-9%
CCCCNC(=O)CC(=O)Nc1ccccc1C(=O)O,-17%
Cn1nnc(C(O)CN2CCOCC2)n1 (stereo unspecified),0%
Cc1ccc(C)c(C(=O)CCC(=O)Nc2cccnc2)c1,8%
COc1cc(OC)c(C(=O)NC2CCCCCC2)cc1OC,-14%
OCCNc1nc(C2CC2)nc2c1nnn2Cc1ccccc1Cl,9%
Cc1cc(C(F)F)n2nc(C(=O)Nc3ccc(F)cc3F)nc2n1,57%[activator]
N#Cc1cccc(-n2nnnc2-c2ccccn2)c1,1%
CCOC(=O)CNC(=O)Cn1cnc2c(nnn2-c2ccc(C)cc2)c1=O,-4%
COc1ccc(S(=O)(=O)N2CCC(C(=O)NCCc3ccc4c(c3)OCO4)CC2)cc1,9%
Fc1ccc2nc3n(c2c1F)CCCCCC3,2%
CCOP1(=O)C=C(C(C)(C)C)OC1c1ccc(F)cc1 (stereo unspecified),-9%
NC(=O)C1(N2CCCCC2)CCN(Cc2ccccc2Cl)CC1,6%
CN(C)CCNC(=O)Cn1nc(-c2ccc(Cl)cc2)ccc1=O,-23%
Cc1cccc2cc(CN(CCCN3CCOCC3)Cc3nnnn3C(C)(C)C)c(=O)[nH]c12,-2%
O=C(N1CCC(O)(c2cccnc2)CC1)C12CC3CC(CC(C3)C1)C2,5%
CN1CCN(c2ccc(NC(=O)COc3ccccc3Cl)cc2)CC1,8%
Cc1oc(-c2ccccc2F)nc1CSCC(=O)NCc1ccc2c(c1)OCO2,-3%
O=C(N1CCOCC1)N1CCN(S(=O)(=O)N2CCCCC2)CC1,-2%
Cc1ccc(S(=O)(=O)N2CCCC2C(=O)N2CCCCCC2)cc1 (stereo unspecified),1%
CSC(=NCCCN1CCOCC1)NS(=O)(=O)c1cccs1,0%
O=C(O)CCn1c(=O)c2ccccc2c2ccccc2c1=O,-1%

Remaining list, next part.
SMILES,HSD17B inh
CC(C)CC1NC(=O)N(CC(=O)N2CCN(S(=O)(=O)c3ccc(Cl)cc3)CC2)C1=O (stereo unspecified),7%
CC1CCN(c2c(NCc3ccc(C(=O)N4c5ccccc5CC4C)cc3)c(=O)c2=O)CC1 (stereo unspecified),-3%
CC/C=C1/OC(=O)c2ccccc21,7%
CSc1ncccc1C(=O)OCC(=O)NC1CCS(=O)(=O)C1 (stereo unspecified),8%
Cc1ccc(/C=C/C2=Cc3c(sc(NC(=O)CSc4n[nH]c(N)n4)c3C#N)C(C)(C)C2)o1,13µM*
O=C(O)CNS(=O)(=O)c1ccc(Br)s1,-2%
COc1ccccc1C1(CC(=O)O)CCOC(C)(C)C1 (stereo unspecified),4%
COc1cc(OC)cc(C(=O)N2CCN(c3ccccc3F)CC2)c1,0%
Cc1ccc(Cn2nnc3c(=O)n(CC(=O)NCc4ccco4)cnc32)cc1,-9%
O=C1c2oc3ccccc3c(=O)c2C(c2ccccn2)N1Cc1ccccc1 (stereo unspecified),-3%
COc1cccc(-c2nc(CS(=O)(=O)CC(=O)NCc3ccccc3OC)c(C)o2)c1,2%
CC(=O)NCc1nc2ccccc2n1Cc1ccccc1F,-2%
CCCCCCc1ccc(-c2ncc(N)cn2)cc1,?
CCOC(=O)c1ccc(Cn2c(-c3ccccc3)nnc2-c2ccccc2)o1,-17%
CCOC(=O)c1sc2nc(C)cc(C)c2c1N,25µM*
CCC(C(=O)NC1CCCC1)N(Cc1ccc2c(c1)OCO2)C(=O)c1snc(C(N)=O)c1N (stereo unspecified),-13%
COc1ccc(S(=O)(=O)NCCCN2CCOCC2)c2ccccc12,-5%
COc1nc(/C(N)=N/O)nc(N2CCCCC2)n1,8%
Cc1ccc(-c2nc3nc4ccccc4nc3n2Cc2ccco2)cc1,25µM*
COc1ccccc1-c1cncnc1Nc1ccc(F)cc1,-22%
CCC(=O)N1CCc2cc(Br)cc(S(=O)(=O)N3CCN(C(=O)c4ccco4)CC3)c21,9%
O=C(c1ccc(COc2ccccc2Br)o1)N1CCCCCC1,-4%
COc1ccc(C2C(C(=O)N3CCCC3)CC(=O)N2c2ccc(OC)cc2)cc1 (stereo unspecified),0%
O=C(OCC(=O)c1c[nH]c2ccccc12)C1=COCCO1,2%
O=c1ccn(Cc2ccccc2)c(=O)n1Cc1ccccc1,8%
O=C=Nc1ccc(Cc2ccc(N=C=O)cc2)cc1,-2%
Cc1ccc(CNC(=O)c2cccc(OCc3c(C)noc3C)c2)cc1,-2%
CCN1C(=O)C(C(=O)Nc2ccc(OC)cc2)C2CC1(C)Oc1ccccc12 (stereo unspecified),8%
CCOC(=O)CN1CC23C=CC(O2)C(C(=O)Nc2cc(OC)ccc2OC)C3C1=O (stereo unspecified),2%
CCNS(=O)(=O)c1ccc(OC)c(C)c1,8%
Cc1nn2c(-c3cccc(NC(=O)c4ccco4)c3)nnc2c2ccccc12,13%
CCOC(=O)C1=C(N)OC2=C(C(=O)CCC2)C1c1ccc(C)s1 (stereo unspecified),-7%
O=C1c2ccccc2C(=O)N1CSc1ncccn1,-4%
COc1ccccc1NC(=O)N1CCCC1C(=O)NC12CC3CC(CC(C3)C1)C2 (stereo unspecified),5%
O=C(c1ccc(CN2CCc3ccccc3C2)cc1)N1CCCCC1,-2%
O=C(NCc1cccs1)c1cc2ccccc2o1,3%
COc1ccc(/C=C/C(=O)c2ccc(O)cc2O)cc1OC,-28%
CCCn1c(CCc2ccccc2)nnc1SCC(=O)N1CCCC1,8%
CCOC(=O)c1ccc(-c2nnc(-c3ccc(Cl)cc3Cl)o2)cc1,?
O=c1cc(O)c2c(=O)n3c4c(cccc4c2o1)CCC3,4%

Random excerpt: 3 compounds from above
SMILES,HSD17B inh
O=c1cc(O)c2c(=O)n3c4c(cccc4c2o1)CCC3,4%
CCOC(=O)c1ccc(-c2nnc(-c3ccc(Cl)cc3Cl)o2)cc1,?
O=C(NCc1cccs1)c1cc2ccccc2o1,3%
